Screening data as filed in PubChem BioAssay.
Rango complex inh = qHTS Assay for Inhibitors of Rango (Ran-regulated importin-beta cargo) - Importin beta complex formation; Rango CFP/YFP FRET sensor + importin beta, 45 min; 340,000 tested, 0.031% active; Potency, µM (doses to about 92.2 µM), inactives show at the top dose inhibition of complex formation; active = rising FRET ratio curve, often small or poorly fitted; inconclusive = mostly compound fluorescence or quenching in the first reads; inactive = flat curves in all reads;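 also: potency is read from the fitted curve at half-maximal effect; 0% = DMSO wells and 100% = buffer wells lacking importin beta; nearly all actives have a fitted effect of over 15% in size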
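Inhibition scored from the CFP 486 nm/YFP 530 nm FRET ratio 45 min after adding 0.125 microM importin beta to 50 nM Rango biosensor preincubated 5 min with compound (room temperature, PBS with DTT, Tween-20, BSA). No-importin wells as positive control.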
GLA inh pH 4.5 = qHTS Assay for Inhibitors of Human alpha-Galactosidase at pH 4.5. 230,000 tested, under 10 active. activity change, negative = inhibition, % at 105 µM. Alpha-galactosidase A (Homo sapiens), P06280. purified enzyme, 4-MU-alpha-Gal fluorescence, pH 4.5; inconclusive = small, poorly fitted or top-dose-only inhibition, or a rising curve; inactive = flat fitted curve, though single readings scatter; no compound was filed as active;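 also: 0% = full activity with enzyme and -100% = basal without enzyme; dose as in the result columns while the protocol names 77 µM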
Target sequence (P06280 whole entry, looked up): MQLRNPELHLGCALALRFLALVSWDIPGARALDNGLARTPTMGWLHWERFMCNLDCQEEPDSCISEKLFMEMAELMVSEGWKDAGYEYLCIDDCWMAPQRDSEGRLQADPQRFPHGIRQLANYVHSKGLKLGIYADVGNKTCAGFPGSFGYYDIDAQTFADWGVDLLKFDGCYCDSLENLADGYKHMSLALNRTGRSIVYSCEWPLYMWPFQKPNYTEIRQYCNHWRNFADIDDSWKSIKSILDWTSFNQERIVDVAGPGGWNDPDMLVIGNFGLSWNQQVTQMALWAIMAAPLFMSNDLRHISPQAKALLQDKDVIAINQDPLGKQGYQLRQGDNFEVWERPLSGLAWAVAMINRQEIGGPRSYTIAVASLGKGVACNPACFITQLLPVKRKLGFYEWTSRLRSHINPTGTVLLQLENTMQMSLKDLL
miR-21 FLuc = qHTS Assay for Modulators of miRNAs and/orActivators of miR-21. HeLa miR-21 FLuc reporter, luciferase, 48 h. Potency, µM (highest dose often 38.3 µM), inactives show top-dose reporter change, positive = more light. 340,000 tested, under 10 active. AID 2288, 2010; active = well fitted rising curve with a large enough effect; inconclusive = small, poorly fitted or top-dose-only effect; inactive = no such curve, though single readings can be large or run the other way;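 also: % of control where 0% means no effect; miR-21 action dims this reporter so a rising signal means less miR-21 action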
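HeLa cells stably expressing CMV-driven firefly luciferase with a downstream miR-21 binding sequence, endogenously expressing miR-21, were treated with titrations (up to about 40uM final) for 48 hours at 37 degree Celsius. Luciferase luminescence was read after lysis.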
Rango release inh = qHTS Assay for Inhibitors of RanGTP induced Rango (Ran-regulated importin-beta cargo) - Importin beta complex dissociation | Potency, µM (top dose mostly 46.1 µM), without a hit: top-dose activity change, negative = inhibition | 340,000 tested, 0.071% active | Biochemical FRET Rango-importin beta, RanGTP-induced dissociation; active means falling FRET ratio curve, often poorly fitted, with flat reads before Ran was added; inconclusive means other falling curves, or compound fluorescence or quenching; inactive means flat or rising ratio curve;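 also: potency is read from the fitted curve at half-maximal effect; % of control where 0% means no effect; nearly all actives have a fitted effect of over 45% in size; -100% = wells without RanGTP and RCC1; the record marks most hits as doubtful in a second field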
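Recombinant Rango FRET biosensor (EYFP–snurportin 1 IBB–cerulean CFP10) at 0.1 uM premixed with 0.25 uM importin beta in PBS, 1 mM DTT, 0.02% Tween-20, 0.1% BSA. Compound added 5 min; RanGTP-RCC1 (0.6 uM Ran, 2 mM GTP, 0.2 uM RCC1) then triggers release, read at 45 min.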
* hit, by the source's call; ? = inconclusive; . = no result given; & = joins results of further samples. Not all compounds are listed; rates above refer to the full screens.

Rango complex inh,GLA inh pH 4.5,miR-21 FLuc,Rango release inh,mol
2.6%,7.7,-17.3%,11.9%,Cc1cc(NC(=O)c2cc(F)c(F)cc2Cl)no1
-1.4%,.,-11.7%,0.2%,CN(C)CCNC(=O)C(=O)NCC(c1ccc2c(c1)OCO2)N1CCN(c2ccc(F)cc2)CC1 (stereo unspecified)
-0.6%,0.3,-22.7%,1.0%,Fc1ccc2c(c1)/C(=N/Nc1ccccn1)CCS2
-1.3%,1.6,6.4%,12.0%,C[C@@H]1C=C(C(=O)N2CCN(Cc3ccccc3)CC2)O[C@H](OCc2ccc(CO)cc2)C1
1.1%,.,.,7.0%,COc1cc(C(=O)NC(C)c2ccccc2)ccc1OCC(=O)N1CCOCC1 (stereo unspecified)
0.7%,.,1.8%,0.7%,CCc1nnc(NC(=O)CCC(=O)N2CCN(c3cc(C)ccc3C)CC2)s1
-0.4%,18.4,-24.6%,5.9%,Cc1csc(NC(=O)c2ccccc2O)n1
2.1%,-6.3,-6.7%,5.6%,COc1ccc(CNc2cccc(F)c2)cc1Br
0.3%,.,.,-2.2%,CCOc1ncccc1C(=O)NNC(=O)c1cccc(S(=O)(=O)N2CCOCC2)c1
2.3%,6.7,-0.3%,-5.7%,O=C(N/C(=C\c1cccc([N+](=O)[O-])c1)C(=O)N(CCO)CCO)c1ccco1
0.2%,5.9,-3.3%,-2.1%,CC1CCCCN1CC(=O)NCc1ccc2c(c1)OCO2 (stereo unspecified)
-0.7%,-2.0,6.9%,7.4%,Cc1cccc(C)c1N1CCN(c2ccc3nnc(C(F)(F)F)n3n2)CC1
1.9%,10.5,-0.8%,-5.5%,CN1CCC(N(C)C(=S)Nc2ccc(F)cc2)CC1
-1.5%,8.2,-37.4%,-5.4%,Cc1ccc(NC(=O)C2C3/C=C\CCCCC32)cc1C (stereo unspecified)
1.5%,2.9,-17.5%,5.8%,CCN(CC(=O)NCc1ccc(Cl)cc1)Cc1cc(=O)n2ccsc2n1
-1.2%,-4.3,-19.7%,-18.2%,O=C(NCCN1CCOCC1)Nc1ccc(Cl)cc1Cl
6.9%,-10.5,17.3%,4.1%,Oc1c(C(c2ccccn2)N2CCC(Cc3ccccc3)CC2)cc(Cl)c2cccnc12 (stereo unspecified)
-0.3%,0.2,-0.7%,-0.7%,COc1ccc(N2C(=O)CC(C#N)=C2N)cc1
2.2%,2.6,-26.2%,11.7%,O=C(COc1ccc([N+](=O)[O-])cc1Cl)NCC1CCCO1 (stereo unspecified)
-0.5%,-5.0,-3.0%,8.1%,C=COCCNC(=O)Nc1ccc(Cl)cc1Cl
4.3%,-0.2,-7.2%,-1.7%,CCOc1ccc(OCCOCCN2CCc3ccccc3C2)cc1
?,-7.5,-0.6%,?,CC1=C(C)CC(C(=O)Nc2nc(-c3ccc(C)cc3C)c(C)s2)C(C(=O)O)C1 (stereo unspecified)
-3.7%,.,-0.2%,1.7%,CCc1ccc(NC(=O)CCC(=O)c2ccc(C)cc2)cc1
3.3%,.,.,-2.9%,CC(=O)c1cccc(OCC(=O)Nc2cc(S(=O)(=O)N3CCOCC3)ccc2N2CCCC2)c1
3.1%,2.3,-9.0%,-26.1%,Cn1c(=O)n(CC#N)c2ccccc21
-1.3%,-10.4,-6.9%,-7.1%,COc1ccc(C2CC(c3ccc(OC)cc3)n3nc(NC(=O)c4ccco4)nc3N2)cc1 (stereo unspecified)
-5.3%,.,16.9%,12.8%,Cc1csc(N2CCN(c3cc4nc(-c5ccncc5)[nH]c4cc3Cl)CC2)n1
1.6%,.,.,0.3%,O=C(O)c1cccc(C(=O)c2cccc3ccccc23)c1
-2.1%,-2.4,-1.3%,-1.2%,O=C(Nc1ccccc1C(=O)OC1CCOC1=O)c1ccco1 (stereo unspecified)
4.6%,-18.7,-0.2%,16.5%,COC(=O)C(CC(C)C)NC(=O)c1ccc([N+](=O)[O-])cc1 (stereo unspecified)

Some entries already given, showing only Rango release inh and GLA inh pH 4.5:
SMILES	Rango release inh	GLA inh pH 4.5
CC(=O)c1cccc(OCC(=O)Nc2cc(S(=O)(=O)N3CCOCC3)ccc2N2CCCC2)c1	-2.9%	.
Cn1c(=O)n(CC#N)c2ccccc21	-26.1%	2.3
COc1ccc(C2CC(c3ccc(OC)cc3)n3nc(NC(=O)c4ccco4)nc3N2)cc1 (stereo unspecified)	-7.1%	-10.4

Next part.
Rango complex inh,GLA inh pH 4.5,miR-21 FLuc,Rango release inh,mol
1.4%,.,-67.1%,-6.2%,COc1ccc(-c2csc(N3CCSCC3)n2)cc1
?,-4.7,1.0%,-6.1%,CN(C)S(=O)(=O)c1ccc(N2CCCC2)c(C(=O)Nc2nc(-c3ccc(F)cc3)cs2)c1
6.7%,.,.,-0.7%,CCOC(=O)C1=C(COC(=O)c2ccc(OC)c(S(=O)(=O)N3CCOCC3)c2)NC(=O)NC1C (stereo unspecified)
4.2%,0.8,-16.2%,1.8%,Cc1ccc2ncnc(Nc3cccc(C(=O)O)c3)c2c1
?,4.7,6.5%,-6.4%,O=C(O)c1ccc(S(=O)(=O)Nc2ccc(O)c(Sc3nc4ccccc4s3)c2)cc1
-3.8%,1.4,-1.9%,-9.5%,C/C(=N\O)C1(C)N(O)C(C)(C)C(c2ccc(F)cc2)=[N+]1[O-] (stereo unspecified)
1.4%,.,-9.8%,-5.7%,CC(C)c1ccc(NC(=O)C2CC(=O)N(C3CCCC3)C2)cc1 (stereo unspecified)
-0.2%,.,-5.3%,0.8%,Cc1cccc(C(=O)OCC(=O)NCCNC(=O)COC(=O)c2cccc(C)c2C)c1C
3.8%,2.9,7.1%,12.4%,O=C(CSc1nnc(-c2cccs2)n1Cc1ccccc1)N1CCc2ccccc2C1
2.3%,-0.7,5.6%,?,Cc1ccc(Cl)cc1NC(=S)N(Cc1ccco1)C(C)c1cccs1 (stereo unspecified)
-1.0%,-9.1,-30.7%,-18.6%,Cc1cc(C(=O)Nc2nc(C)c(C(=O)N(C)C)s2)ccc1[N+](=O)[O-]
0.5%,.,-8.6%,-1.6%,Cc1cc(Cl)c2oc(C(=O)NCC(C)(C)N3CCOCC3)c(C)c2c1
-3.6%,.,-48.5%,-15.9%,OC(COc1ccc(Cl)cc1)CSc1ccccn1 (stereo unspecified)
-3.7%,5.8,0.4%,3.9%,CCc1ccc(NC(=O)C(C)OC(=O)c2cccc(S(=O)(=O)N3CCc4ccccc4C3)c2)cc1 (stereo unspecified)
?,.,6.6%,-1.8%,O=C(CCCn1c(=O)[nH]c2ccsc2c1=O)NC1CCCCC1
-1.3%,2.3,-1.0%,?,CCOc1ccc(NC(=O)Cn2nnc(-c3ccccc3NC(=O)C3CC3)n2)cc1
-5.4%,-1.5,4.6%,5.0%,Cc1c(Cl)cccc1NC(=O)Nc1cc(C(C)(C)C)nn1C
-0.1%,.,-1.1%,21.7%,COc1ccccc1-c1nc(S(=O)(=O)c2ccccc2)c(N2CCOCC2)o1
-3.4%,-2.1,-8.4%,-3.4%,Cc1ccc(NC(=O)CSc2nnc(Cc3ccccc3)o2)c(C)c1
6.0%,-1.4,-10.4%,27.0%,COC(=O)c1nn(-c2ccccc2)nc1-c1nn(-c2ccccc2)nc1C(=O)OC
0.6%,-0.4,-3.2%,7.2%,CSc1ccc(Cl)c(C(=O)NCCOc2cc(C)ccc2C(C)C)c1
-2.8%,2.5,-0.3%,15.4%,CCCOc1ccccc1C1NC(=O)NC(C)=C1C(=O)OCCOC(C)C (stereo unspecified)
0.8%,.,.,-18.2%,CN(C)C(=S)N=c1ssc(=S)n1Cc1ccccc1
4.6%,.,.,8.4%,CC(C)CN(C(=O)CCCSc1nc2ccccc2[nH]1)c1c(N)n(Cc2ccccc2)c(=O)[nH]c1=O
3.8%,?,-23.8%,-10.4%,CN1CCN(c2nc(-c3ccc(Br)cc3)nnc2-c2ccccc2)CC1
0.7%,.,-0.7%,1.7%,Cc1ccc(S(=O)(=O)NC(C(=O)N2CCOCCOCCOCC2)C(C)C)cc1 (stereo unspecified)
?,.,-6.9%,2.3%,O=[N+]([O-])c1c(NCCO)cc(N2CCCCCC2)c2nonc12
-5.1%,0.6,0.2%,-13.4%,CC12CN3CC(C)(CN(C1)C3c1ccccc1F)C2 (stereo unspecified)
?,0.0,0.5%,-1.7%,NS(=O)(=O)c1ccc(CCNC(=O)c2cccc([N+](=O)[O-])c2)cc1
0.9%,.,.,-10.4%,Cc1cc(C(=O)CN2C(=O)C(=O)N(Cc3ccco3)C2=O)c(C)n1CCc1ccc(F)cc1
0.6%,1.4,-15.1%,-6.9%,N#Cc1c(F)cccc1N1CCC(C#N)CC1
1.0%,-8.8,6.6%,6.8%,CCOC(=O)c1cc(-c2ccccc2)n(CCC(=O)N2CCN(c3ccccn3)CC2)c1C
-0.4%,2.4,-4.1%,41.6%,O=S(=O)(c1ccc(NC(=S)Nc2ccccc2)cc1)N1CCOCC1
2.7%,.,.,-2.2%,CCOc1ccc(-n2ccnc(SCC(=O)NC3CCCC3)c2=O)cc1
3.6%,4.3,-2.4%,-25.8%,O=C(CCSc1nc2ccccc2s1)N/N=C/c1c(O)ccc2ccccc12
-2.3%,.,.,-4.2%,Clc1ccc(C2Nc3cccc4cccc(c34)N2)c(Cl)c1
-0.4%,-0.5,-0.2%,2.2%,CC(C)CN(C(=O)CN1CCN(S(=O)(=O)c2ccccc2)CC1)c1c(N)n(CC(C)C)c(=O)[nH]c1=O
-0.6%,-14.7,-0.9%,-18.4%,Cc1ccc(C(=O)Nc2cc(=O)n(C)c(=O)n2C)o1
-0.3%,-4.8,-28.2%,8.3%,CN(C)CCN(C(=O)c1cc(Cl)sc1Cl)c1nc2ccc(F)cc2s1
-0.1%,-8.0,-0.8%,17.7%,Cc1nn(Cc2ccc(Cl)cc2)c(C)c1NC(=O)c1c(-c2ccccc2)noc1C
-0.1%,.,-2.8%,22.4%,CC(C)COc1cccc(C(=O)NNC(=O)C2COc3ccccc3O2)c1 (stereo unspecified)
0.1%,-3.1,-4.4%,-12.6%,CCCCC(CC)c1nnc(NC(=O)c2cccs2)s1 (stereo unspecified)
-1.5%,6.5,-6.2%,2.7%,CCOC(=O)c1ccc(NC(=O)CCC(=O)OC)cc1
-3.4%,-2.0,2.2%,-18.8%,Cc1cccc2nc3ccccc3nc12
4.8%,.,-5.5%,?,CC1CCCCC1NC(=O)CCN1C(=O)C2C3C=CC(C3)C2C1=O (stereo unspecified)
0.9%,0.9,-6.1%,-9.3%,Cc1cc(NC(=O)/C=C/c2ccccc2)c(C(C)C)cc1O
-1.4%,0.2,0.9%,2.7%,O=c1cc(CO)oc(C(Nc2ccccn2)c2ccc(F)cc2)c1O (stereo unspecified)
1.7%,.,3.2%,5.9%,CC(Oc1ccc2c3c(c(=O)oc2c1)CCC3)C(=O)NC1CCN(Cc2ccccc2)CC1 (stereo unspecified)
?,8.1&-7.8,-1.9%,-13.9%,Cn1c(N)c(C(=O)COC(=O)c2cc(-c3ccco3)nc3ccccc23)c(=O)n(C)c1=O
-0.3%,.,-3.1%,0.9%,CC(C)(Cc1cccc(CC(C)(C)C(=O)O)c1)C(=O)O
0.3%,.,-16.3%,-15.7%,Cc1[nH]n(C(N)=S)c(=O)c1N=Nc1cccc(C(F)(F)F)c1
4.8%,-2.0,0.1%,-12.9%,CCOC(=O)c1ccc(N2CN(CCc3ccccc3)CNC2=S)cc1
-3.3%,-6.0,0.7%,-12.2%,Cn1c(=O)c(C#N)c(-c2ccc(F)cc2)c2cc(C(=O)c3cc(Cl)cc(Cl)c3O)cnc21
0.1%,.,.,-9.7%,CC(C)(C)OC(=O)NCCCCCNC(=O)c1[nH]cnc1C(=O)Nc1ccc(Cl)cc1
-5.8%,-3.3,4.4%,-8.7%,O=C(CN1CCCN(Cc2ccc(F)cc2Cl)C1=O)NCc1ccccc1
-5.0%,.,-7.0%,23.4%,CCc1sc(C(=O)N2CCN(c3ncccn3)CC2)cc1Br
